Bioassay records: PubChem BioAssay, Fisher Drug Discovery Resource Center
NPYLR7 ag = mosquito NPYLR7 agonism; HEK293T NPYLR7/Galpha15, GCaMP6s calcium fluorescence; activation, % at 10 µM; hit rate 0.15% among 270,000; in the data active = activation above about 40%;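 also: 0% = vehicle and 100% = reference agonist at the receptor; some compounds past the cut are filed as inactive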
NPYLR7 ag max-min = second read-out of NPYLR7 ag, no call of its own (marks repeat the call); activation, %; measured here: Max-Min RFU normalised activation; some inactives read as strong as hits;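 span of the calcium signal over five minutes; 0% = vehicle and 100% = native peptide agonist; compound fluorescence can raise it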
Numbers without * were called inactive; & = joins results of further samples. Not all compounds are listed, so the mix of outcomes need not match the whole.

Compound,NPYLR7 ag,NPYLR7 ag max-min
O=C1NC(=Nc2ccccc2)SC1Cc1cccc(Cl)c1Cl (stereo not drawn),-10.8,-19.0
COc1ccc(C2=NC(=Cc3cccc(C#N)c3)C(=O)O2)cc1,10.6,9.1
CCN(CCC(=O)Nc1ccc(C(N)=O)cc1)C(=O)c1ccoc1C,11.6,11.0
CCCC(=O)Oc1c(S(=O)(=O)c2ccc(C)cc2)c(C)nn1-c1ccccc1,1.1,10.8
CS(=O)(=O)c1ccc(CN2CC(c3ccccn3)C2)cc1,20.5,6.7
C=CCSc1nnc2c(n1)[nH]c1c(C)cc(C)cc12,6.0,5.7
Cc1nc2c(c(=O)[nH]1)CCN(C(=O)c1cc(C(F)(F)F)ccc1Cl)C2,7.4,4.6
COC(=O)C1=C(C)NC2=C(C(=O)CC(c3ccc(Cl)cc3)C2)C1c1ccc(Cl)cc1Cl (stereo not drawn),-7.7,-7.6
CCCc1cc(=O)[nH]c(-n2nc(C)cc2NC(=O)c2ccc(OC(C)C)cc2)n1,8.4,1.2
COc1ccc(-c2nc(CN3CCN(Cn4ncn(-c5ccccc5)c4=S)CC3)cs2)cc1,5.7,5.0
O=C(NC1CC1)c1ccnc(N2CCC3(CCCO3)CC2)c1,8.5,4.6
O=C(C=Cc1ccco1)Nc1ccccc1Cl,10.3,10.1

Next part (five carried over from the part before).
Compound,NPYLR7 ag,NPYLR7 ag max-min
COC(=O)C1=C(C)NC2=C(C(=O)CC(c3ccc(Cl)cc3)C2)C1c1ccc(Cl)cc1Cl (stereo not drawn),-7.7,-7.6
CCCc1cc(=O)[nH]c(-n2nc(C)cc2NC(=O)c2ccc(OC(C)C)cc2)n1,8.4,1.2
COc1ccc(-c2nc(CN3CCN(Cn4ncn(-c5ccccc5)c4=S)CC3)cs2)cc1,5.7,5.0
O=C(NC1CC1)c1ccnc(N2CCC3(CCCO3)CC2)c1,8.5,4.6
O=C(C=Cc1ccco1)Nc1ccccc1Cl,10.3,10.1
COC(=O)Oc1cncc(C(=O)ON2C(=O)CCC2=O)c1,1.0,0.3
COC(=O)c1ccc(CN2C(=O)C(C)ON=C2c2ccc(NC(C)=O)cc2)o1 (stereo not drawn),12.3,4.2
CCc1ccc(CN2CCN(c3nccc4ccccc34)CC2)nc1,5.6,3.2
COc1ccc(CC2(C)NC(=O)N(CC(=O)N(C)C)C2=O)cc1OC (stereo not drawn),3.7,1.9
COc1ccc(N(CCN2C(=O)c3cccc4c(Br)ccc(c34)C2=O)C(=O)c2ccc(C)cc2)cc1,11.0,4.2
CCOc1ccc(C2C(C#N)=C(SCC(=O)OC)NC(=O)C2C(=O)OC)cc1 (stereo not drawn),6.4,38.5
O=C(c1c(Cl)cccc1Cl)N1CCN(Cc2cc(=O)c(OCc3ccc(C(F)(F)F)cc3)co2)CC1,22.9,11.9
NC(=O)c1c(NC(=O)C2CCCCC2)sc2c1CCCC2,-0.4,-3.1
Cc1nc2ccc(C(=O)N(CC(C)C)c3c(N)n(CC(C)C)c(=O)[nH]c3=O)cc2nc1C,-3.7,-1.1
Nc1nc2c3ccccc3nc(Cc3ccccc3)n2n1,12.9,12.3
CN(C)c1ccc(-c2ccnc3c2CC(C)(C(=O)NCCc2ccccc2)O3)cc1 (stereo not drawn),-1.3,-1.1
CCCCCn1c(=O)c2c(nc3n2CCCN3c2ccc(OC)cc2)n(C)c1=O,-4.4,-6.2

Record cards, from the list above. Order of values: NPYLR7 ag	NPYLR7 ag max-min
CCCCCn1c(=O)c2c(nc3n2CCCN3c2ccc(OC)cc2)n(C)c1=O as listed: -4.4	-6.2
Cc1nc2ccc(C(=O)N(CC(C)C)c3c(N)n(CC(C)C)c(=O)[nH]c3=O)cc2nc1C as listed: -3.7	-1.1
COc1ccc(N(CCN2C(=O)c3cccc4c(Br)ccc(c34)C2=O)C(=O)c2ccc(C)cc2)cc1 as listed: 11.0	4.2
O=C(c1c(Cl)cccc1Cl)N1CCN(Cc2cc(=O)c(OCc3ccc(C(F)(F)F)cc3)co2)CC1 as listed: 22.9	11.9
NC(=O)c1c(NC(=O)C2CCCCC2)sc2c1CCCC2 as listed: -0.4	-3.1

Continuation:
Compound,NPYLR7 ag,NPYLR7 ag max-min
Cc1cccc(CSc2ncc(CO)n2CC(=O)NC2CC2)c1,9.8,2.9
CC(NC(=O)c1cccs1)C(=O)N1CCCC(C(F)(F)F)C1 (stereo not drawn),-0.1,-1.3
Cc1cc(CN(C)C(=O)CC(c2ccccc2)c2ccccc2F)n[nH]1 (stereo not drawn),11.2,-1.1
CCC(C)N(Cc1cccnc1)C(=O)c1ccc2nc(C)[nH]c2c1 (stereo not drawn),5.2,-4.1
CCOC(=O)N1CCN(C2CCCN(C3CCN(c4ccc(OC)cc4)CC3)C2)CC1 (stereo not drawn),6.5,1.6
CN(c1ccccc1)S(=O)(=O)c1cccc(C(=O)N2CCCC(C(N)=O)C2)c1 (stereo not drawn),-3.4,-5.6
CC(C)c1ccc(-c2nnc(SCCS(C)(=O)=O)o2)cc1,22.3,20.4
NC(=S)N1N=C(c2ccccc2)CC1c1ccccc1 (stereo not drawn),-6.6,-10.3
Cc1cccc(-n2c(SCc3ccc(F)cc3F)nnc2-c2ccc(F)cc2)c1,25.1,29.6
CC(c1cccc(-c2cccc(-n3cnnc3)c2)c1)N1CCCC1 (stereo not drawn),-2.2,-4.4
COc1ccc(-c2cc(-c3ccccc3)nc(SCc3ccccc3C)c2C#N)cc1,9.2,3.3
CCN(CC)C(=O)Oc1ccc2c(ccn2Cc2ccccc2OC(F)F)c1-c1ccc(F)c(F)c1,19.0,2.4
Cc1nc(C)c(Cc2cccc(Cl)c2)c(N2CCN(C(=O)C(C)C)CC2)n1,30.5,31.1
[O-][n+]1c2c(c3c4non(O)c4ccc31)CCCC2,3.5,4.5
CNc1cc(C(=O)N(C)CCc2scnc2C)ccn1,7.5,8.2
Cc1nc(C2CN(C3CCN(CC(F)(F)F)C3=O)CCO2)n[nH]1 (stereo not drawn),5.3,4.7
O=C(Cc1cccs1)Nc1cccc(C2SCC(=O)N2c2ccc(F)cc2F)c1 (stereo not drawn),3.8,13.5
CN(CC1(CO)CC1)C(=O)CC1C(=O)NCCN1C1Cc2ccccc2C1 (stereo not drawn),0.6,-0.1
O=C(N[C@@H]1CCCCC1NC(=O)C1CCCN(C(=O)c2cccc(Br)c2)C1)c1ccc(F)cc1 (stereo partly drawn),24.5,25.8
CC1CC(C)CN(c2nc(C(F)(F)F)nc3ccccc23)C1 (stereo not drawn),1.4,7.5
COc1ccc(C(C)(NC(C)=O)c2nc(-c3cnc4ccccc4c3)cs2)cc1 (stereo not drawn),5.6,3.2
CCOC(=O)N1CCN(C(c2cccc(C(F)(F)F)c2)C2Sc3nc(CC)nn3C2=O)CC1 (stereo not drawn),-3.6,-7.9
Cc1cc(CSc2nc3ccccc3c3nc4ccccc4n23)no1,8.4,7.1
CC1(Cc2ccccc2OC(F)(F)F)C(=O)Nc2ccc(-c3ccsc3)cc21 (stereo not drawn),3.9,3.3
COc1ccc(OCCN2CCN(S(=O)(=O)c3ccccc3C#N)CC2)cc1,-0.3,-0.4
COc1cc(S(=O)(=O)NCCNc2cc(-n3cccn3)ncn2)c(C)cc1C,-9.9,-15.5
Cn1ccnc1SCc1cc(=O)c(OC(=O)c2cccc3ccccc23)co1,24.4,15.1
CO[C@H]1C[C@H](O[C@H]2[C@H](C)[C@@H](OC3O[C@H](C)C[C@H](N(C)C)[C@H]3OC(C)=O)[C@@H](C)C[C@]3(CO3)C(=O)[C@H](C)[C@@H](OC(C)=O)[C@@H](C)[C@@H](C)OC(=O)[C@@H]2C)O[C@@H](C)[C@@H]1OC(C)=O (stereo partly drawn),-1.4,-5.7
CCc1nc2ccc(C(=O)N3CCNC(=O)C3)cn2c1N(C)Cc1cc2ccccc2s1,-5.6,-8.7
CS(=O)(=O)N1CCCN(c2nc3ccccc3nc2-c2ccccc2)CC1,25.6,24.2
Cc1ccc(-c2nc(C)c(Cc3ccccc3)c(N3CCN(C(=O)Nc4ccc(Br)cc4)CC3)n2)cc1,-3.1,4.9
CCn1cc(C(=O)N2CCN(C(=O)C(C)C)CC2)c2nn(-c3ccccc3)c(=O)c-2c1,0.2,-1.4
CN1CCN(c2ccc(CNC(=O)C3(C)Cc4c(-c5ccc6c(c5)OCO6)ccnc4O3)cc2)CC1 (stereo not drawn),16.9,8.9
Cc1csc2nc(CSc3nnc(-c4cccs4)o3)cc(=O)n12,-1.9,-4.7
COc1ccc(-c2cnc(-c3ccc(CNC(=O)c4cccc(Cl)c4Cl)cc3)[nH]2)cc1,-4.3,-8.3
CN1c2ccccc2N(C)C1C1C(=N)N2CCCC2C1=O (stereo not drawn),9.1,5.3
CCCN(CC1CC(c2cccc(F)c2)=NO1)C(=O)C1CCCC1 (stereo not drawn),-4.6,3.8
CC(C)(C)c1cc(NCCOCCO)n2ncc(-c3ccccc3Cl)c2n1,4.6,10.8
CC1CCN(c2nc3c(cnn3-c3ccccc3)c(=O)[nH]2)C2CCCCC12 (stereo not drawn),7.1,-5.1
CCOCCCNC(=O)c1cc(NC(=O)c2ccc(OC)cc2)ccc1N1CCC(C)CC1,15.7,15.8
CCOC(=O)c1nc2cc(Cl)c(Cl)cc2nc1N1CCCN(C(=O)c2cccs2)CC1,5.6,-1.8
Cc1nn(S(=O)(=O)c2ccc(C(C)C)cc2)c(C)c1S(=O)(=O)N1CCCC(C)C1 (stereo not drawn),0.5,2.8
CCc1nc([C@H]2CN(C)C[C@@H]2C(=O)N2Cc3nc(C)n(C)c(=O)c3C2)c(C)[nH]1,-0.8,-3.8
CCN(CC)CCn1ccnc1-c1ccc(C(=O)O)cc1,27.3,21.7
c1cc(-c2cccc3cccnc23)nc(N2CCOCC2)c1,-7.4,-10.8
CC1(c2ccsc2)CC(=O)N(CC(=O)NC2CCCC2)C1=O (stereo not drawn),-1.1,9.8
CC(C)(C)c1cc(C(=O)N=Nc2c(O)[nH]c3ccccc23)n[nH]1,8.1,7.0
Cc1cc(=O)n2c(=O)c(/C=C/c3ccc(Cl)cc3)n[nH]c2n1,21.8,13.9
C=CCC1NC2(CCCC2)Cc2cc(OC)c(OC)cc21 (stereo not drawn),11.7,6.1
Cc1ccc(C2CSCCN2C(=O)c2cc(C(N)=O)cs2)o1 (stereo not drawn),6.3,1.5
Cc1cc(N2CCC(N3CCNC3=O)CC2)nc2c(C(C)C)cccc12,9.1&-0.4,5.8&-1.5
Cc1[nH]cnc1C(=O)N1CCC2(CC1)C(=O)Nc1ccccc12,3.5,8.9
Cc1ccc2[nH]c(CN3CCN(c4ncc(C)c(N)n4)CC3)c(C)c2c1,-3.1,-3.3
NC(=O)c1c(NC(=O)c2ccco2)sc2c1CCC2,-1.5,-4.5
COCCN(Cc1ccsc1)C(=O)COc1ccccc1,7.0,3.5
O=C(Cc1nc(-c2ccncc2)n[nH]1)N1CCCC1c1ccccn1 (stereo not drawn),-0.9,-1.7
O=C(CSc1nc2[nH]ncc2c(=O)n1-c1cccc(C(F)(F)F)c1)NCc1ccccc1,-1.6,3.5
Cc1ccc(N(C)C(=O)N2CCN(S(=O)(=O)c3cccc([N+](=O)[O-])c3)CC2)cc1,5.0,5.3
COc1ccc(-c2ccc(CCC(=O)NCCN3CCOCC3)n2-c2ccc(SC)cc2)cc1,1.2,0.0
CC(C)(C)CN1CCCC2(CCN(C3CSCCSC3)C2)C1 (stereo not drawn),0.0,-1.1

The listing continues:
Compound,NPYLR7 ag,NPYLR7 ag max-min
O=C(c1ccc2ccccc2c1)C1CCCN(C(=O)CSc2ccccn2)C1 (stereo not drawn),5.4,2.9
Cc1nnc(SCc2ccc([N+](=O)[O-])cc2)n(N)c1=O,-3.1,4.8
CC1=NOC(C(=O)N2CCC(c3cc(Cc4ccccc4)[nH]n3)CC2)C1 (stereo not drawn),-2.1,-4.2
COC(=O)C1C(=O)OC(C)(C)C2CCC(C)CC12 (stereo not drawn),10.4,6.0
O=C(CNC1CCCCC1)Nc1c2c(nc3c1CCC3)CCC2,5.8,3.6
COc1ccc(C(=O)Nc2ccc(N(C)C)nc2)cn1,-2.7,-2.2
CN1CCC2(CC1)CN(C(=O)CN1CCc3ccccc3C1)CCCN2C,-3.0,-7.4
COc1ccc2nc(-c3ccc(Cl)c(NC(=O)Cc4ccccc4)c3)cn2n1,-9.4,-13.6
CCS(=O)(=O)c1ccc2oc(-c3cccc(C)c3OS(=O)(=O)c3cccc(C(F)(F)F)c3)nc2c1,18.8,26.5
Brc1ccc(C2=Nc3ncnn3C(c3ccco3)C2)cc1 (stereo not drawn),34.1,26.8
O=C(Nc1cccc(S(=O)(=O)C2CCCC2)c1)c1cc(=O)c2ccccc2o1,1.4,0.0
COC(=O)C1=C(O)/C(=C\c2ccc(O)cc2OC)SC1=Nc1cccc(Cl)c1,-5.3,3.8
O=C(CCNc1nc(-c2ccccc2Cl)nc2ccccc12)N1CCN(c2ccccc2F)CC1,11.5,8.7
